# Cruzain inh noDet: inhibitors of Trypanosoma cruzi cruzain without detergent; P25779; purified cruzain, Z-FR-AMC fluorescence, no detergent; Potency, µM, without a hit: max response, negative = inhibition, actives largely listed as inhibitors; hit rate 2.3% among 200,000; AID 1476; active = well fitted curve in the direction sought with a large enough effect; inconclusive = small, poorly fitted or top-dose-only effect, or another doubt; inactive = no such curve, though single readings can be large; an effect the other way counts as inactive or inconclusive;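 note: plate controls were enzyme without inhibitor for no effect and buffer without enzyme for full effect; nearly all actives have a fitted effect of over 40% in size; top concentration of the series not given in the record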
# Target sequence (P25779 123-467 limits assumed): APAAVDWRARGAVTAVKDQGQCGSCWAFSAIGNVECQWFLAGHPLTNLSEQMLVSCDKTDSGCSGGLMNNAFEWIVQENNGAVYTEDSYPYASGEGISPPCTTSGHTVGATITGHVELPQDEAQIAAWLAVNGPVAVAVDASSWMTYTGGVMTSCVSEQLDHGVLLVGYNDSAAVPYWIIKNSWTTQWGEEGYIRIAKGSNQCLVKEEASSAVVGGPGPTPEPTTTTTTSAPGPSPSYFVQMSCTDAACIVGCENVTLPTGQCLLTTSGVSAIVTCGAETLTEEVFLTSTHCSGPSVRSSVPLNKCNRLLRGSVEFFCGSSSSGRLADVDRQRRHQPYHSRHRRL
#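 Detergent-free condition (0.00005% Triton X-100) in acetate buffer pH 5.5 with DTT. 1.5 nM enzyme and compound were pre-mixed 15 min, then 2 uM Z-FR-AMC substrate added; reaction progress from fluorescence change between first and third reads (60 s).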
# RE007 growth inh: less growth of the S. pombe RE007 Vpr strain; S. pombe RE007 Vpr strain, BacTiter-Glo ATP luminescence, 24 h; control for the full effect not named in the record; Potency, µM (doses to about 92.2 µM), for the others: at the top dose activity change, negative = less growth; hit rate 0.21% among 360,000; active = well fitted falling curve with a large enough effect; inconclusive = small, poorly fitted or top-dose-only effect; inactive = no such curve, though single readings can be large or run the other way;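 note: % is set by controls: 0 for no effect and ±100 for the full control effect; nearly all actives have a fitted effect of over 50% in size; the assay follows cell death caused by Vpr and the record does not say whether a fall means rescue or toxicity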
#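 Fission yeast strain RE007, carrying one chromosomally integrated HIV-1 vpr copy, was seeded at OD 0.01 in PMG+AL medium with 23 nL pinned compound. After 24 h at 30 °C and 99% humidity, viability was read by BacTiter-Glo luminescence.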
# SARS PLpro yeast: blocks SARS-CoV papain-like protease in a yeast assay; S. cerevisiae expressing SARS-CoV PLpro, growth rescue; control for the full effect not named in the record; Potency, µM (series often up to 32.9 µM), inactives show top-dose activity, positive = growth rescue; hit rate 0.19% among 330,000; AID 485353; note: 0% is about no effect; nearly all actives have a fitted effect of over 55% in size; growth read by luminescence after 48 h
# NS1 inh: influenza NS1 inhibition | S. cerevisiae slowed by influenza A NS1, growth recovery by OD600 | hit rate 0.4% among 270,000 | Potency, µM (highest dose often 46.1 µM), without a hit: top-dose activity, positive = more growth | AID 2326; note: actives are rising curves; nearly all actives have a fitted effect of over 50% in size
#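 Growth recovery, yeast-based: influenza A NS1 expressed in S. cerevisiae causes slow growth, and suppressors are detected by OD600. The parent strain without NS1 is used as positive control.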
# Lassa entry inh: blocks Lassa virus binding to or entry into cells; Lassa virus pseudotype entry inhibition, cell reporter; control for the full effect not named in the record; Potency, µM (doses to about 37.9 µM), for the others: at the top dose activity change, negative = inhibition, usual class: inhibitors; hit rate 1.2% among 300,000; AID 540256; active means well fitted inhibition curve with a large enough effect; inconclusive means small, poorly fitted or top-dose-only effect, or effect the other way; inactive means flat fitted curve, though single readings scatter; tested in HEK293 cells; note: % is set by controls: 0 for no effect and ±100 for the full control effect; nearly all actives have a fitted effect of over 50% in size; luciferase read-out
# Cruzain inh Det: cruzain (T. cruzi) inhibition with detergent; purified cruzain, Z-FR-AMC fluorescence, 0.01% Triton; Potency, µM, without a hit: max response, negative = inhibition, most hits filed as inhibitors; hit rate 0.43% among 200,000; active = well fitted curve in the direction sought with a large enough effect; inconclusive = small, poorly fitted or top-dose-only effect, or another doubt; inactive = no such curve, though single readings can be large; an effect the other way counts as inactive or inconclusive;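 note: plate controls were neutral wells for no effect and buffer without enzyme for full effect; nearly all actives have a fitted effect of over 40% in size; top concentration of the series not given in the record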
#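 Detergent-containing arm of a paired screen for aggregation-based inhibition: 0.01% Triton X-100 present. Cruzain at 1.5 nM cleaved 2 uM Z-FR-AMC at pH 5.5 with 5 mM DTT; AMC fluorescence gain over 60 s measured activity.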
# 2A StopGo: lowers the luciferase signal of an FMDV 2A StopGo reporter; human cells with a luciferase reporter of 2A StopGo recoding; control for the full effect not named in the record; Potency, µM (series often up to 57.9 µM), inactives show at the highest dose signal change, negative = less light; hit rate 1.2% among 410,000; AID 1159524; active = well fitted falling curve with a large enough effect; inconclusive = small, poorly fitted or top-dose-only effect; inactive = no such curve, though single readings can be large or run the other way; tested in HEK293T cells; note: % is set by controls: 0 for no effect and ±100 for the full control effect; nearly all actives have a fitted effect of over 45% in size; luciferase light after 4 h
# Marburg entry inh: blocks Marburg virus binding to or entry into cells; hit rate 1.8% among 300,000; Marburg virus pseudotyped entry inhibition, cell reporter; control for the full effect not named in the record; about a third of the inactives were read at about 46 µM; AID 540276; Potency, µM (doses to about 37.8 µM), inactives show at the highest dose activity change, negative = inhibition, hits mostly inhibitors; active = well fitted inhibition curve with a large enough effect; inconclusive = small, poorly fitted or top-dose-only effect, or effect the other way; inactive = flat fitted curve, though single readings scatter; tested in HEK293 cells; about a fifth of its hits are not listed in these tables; note: % is set by controls: 0 for no effect and ±100 for the full control effect; luciferase read-out
# * marks the source's active call; other numbers are inactive results; ? = inconclusive; nt = no result given; & = joins results of further samples; [ ] = dose if it differs, or a comment. Unless noted, calls come from the whole dose curve; as a rule, active means well fitted rising curve with a large enough effect; inconclusive means small, poorly fitted or top-dose-only effect; inactive means no such curve, though single readings can be large or run the other way. Potency is the fitted concentration of half-maximal effect.
SMILES,Cruzain inh noDet,RE007 growth inh,SARS PLpro yeast,NS1 inh,Lassa entry inh,Cruzain inh Det,2A StopGo,Marburg entry inh
Cc1ccc(C(=O)Nc2ccc(N3CCN(C)CC3)cc2)c(Cl)c1,nt,-17%,4%,8%,17%[46.1 µM],nt,15%,?
O=C(Cc1cccs1)Nc1nnc(SCC(=O)NC2CCCCC2)s1,?,2%,2%,9%,-11%,-0.7%,-16%,?
CCSc1nnc(-c2cc(Br)ccc2NC(C)=O)c(=O)[nH]1,nt,4%,1%,5%,-7%[46.1 µM],nt,-12%,9%[46.1 µM]
O=C(CCN1CC1)OCCOC(=O)CCN1CC1,nt,4%,nt,nt,?,nt,-6%,?
COc1ccc(S(=O)(=O)NCCCn2ccnc2)cc1C(C)(C)C,nt,13%,-4%,7%,3%[46.1 µM],nt,72%[activator],2%[46.1 µM]
CCC(=O)N1CCC2(CC1)Oc1ccc(Cl)cc1C(=O)C21CC(c2ccc(Cl)cc2)=NO1 (configuration not stated),nt,-1%,-3%,-17%,nt,nt,?,nt
S=c1nc2[nH]c3ccccc3c2n[nH]1,nt,13%,nt,nt,12%[46.1 µM],nt,25%,7%[46.1 µM]
CCCCCCn1c(SCC(=O)c2ccccc2)nc2c1c(=O)[nH]c(=O)n2C,6%,6%,?,?,nt,4.6%,-19%,nt
Cc1cccc(OCc2nc(-c3ccccn3)n[nH]2)c1,6%,-23%,nt,-30%,?,3.6%,11%,-3%
COc1ccc(Cn2c(O)c(C=NCCCn3ccnc3)c(=O)[nH]c2=O)cc1,-15%,36%,-3%,-1%,?,0.6%,-16%,5%
COc1cccc(NC(=O)C2CCCN2C(=O)Nc2cccc(F)c2)c1 (configuration not stated),0%,16%,1%,-6%,-4%,0.8%,11%,13%[46.1 µM]
COc1ccc(OCc2nnc(-c3ccccc3)o2)cc1,-7%,nt,nt,nt,?,-4.1%,31%[activator],4%[46.1 µM]
COc1cc(/C=C/C(=O)OCC(=O)NCCC2=CCCCC2)ccc1O,nt,3%,3%,nt,8%,nt,-11%,14%[46.1 µM]
O=C(Nc1cccc(Cl)c1)C1CCCN1S(=O)(=O)c1cccc2cccnc12 (configuration not stated),?,nt,nt,nt,nt,0.9%,-7%,?
COc1ccccc1N1CCN(c2cc(C)nc3nc(C)nn23)CC1,7%,10%,16%,1%,nt,-2.5%,-22%,nt
Cc1cc(C)nc(NC(=O)c2ccc(Cl)cc2Cl)n1,nt,3%,-1%,0%,-3%[46.1 µM],nt,-17%,-4%[46.1 µM]
COc1cc(/C=C2\C(=O)NC(=O)N(c3ccccc3)C2=O)cc(OC)c1O,0%,6%,14%,6%,8%,1.6%,2%,-1%
Cc1nn(C)c(Sc2ccccc2N)c1[N+](=O)[O-],nt,-12%,-5%,1%,nt,nt,41%[activator],nt
Cc1cccc(N2CCN(C(=O)C3CCN(S(=O)(=O)c4c(C)noc4C)CC3)CC2C)c1 (configuration not stated),?,-12%,-1%,nt,?,-2.6%,?,-20%&-19%[46.1 µM]
CC(=NNC(=O)c1ccc(NS(=O)(=O)c2ccc(Br)cc2)cc1)c1cccnc1,nt,-11%,2%,nt,8%,nt,3%,9%
Nc1c(N=Nc2ccccc2F)c(=O)[nH]n1-c1ccccc1,-12%,2%,0%,-18%,?,-5.3%,54%[activator],?
Cc1ccc(-n2c(=O)c3sc4ccccc4c3n(CC(=O)NC3CCCC3)c2=O)cc1C,-1%,nt,nt,nt,1%[46.1 µM],-0.5%,-11%,0%[46.1 µM]
CCN(CC)C(=O)Cn1ccc(NC(C)=O)nc1=O,nt,-3%,1%,-3%,nt,nt,-1%,nt
Cc1nnc(SCC(=O)Nc2cccc(Cl)c2)n1CC1CCCO1 (configuration not stated),nt,-6%,2%,11%,10%[46.1 µM],nt,-2%,9%[46.1 µM]
O=S1(=O)CCN(c2ccccc2CC(c2c[nH]c3ccccc23)c2c[nH]c3ccccc23)CC1,1%,3%,nt,?,?,-5.7%,-24%,?
CC(=O)Nc1ccc(S(=O)(=O)N2CCC(C(=O)NC3CC3)CC2)cc1,nt,4%,2%,-8%,nt,nt,32%[activator],nt
CC(C)N(Cc1nccn1C)C(=O)CCc1nnc(CCCc2ccccc2)o1,nt,-1%,0%,-1%,nt,nt,74%[activator],nt
CC(=O)c1ccc(S(=O)(=O)Nc2cccc(-c3ccc4nncn4n3)c2)cc1,nt,7%,0%,7%,-18%,nt,-8%,-23%[46.1 µM]
CC(=NCCN1CCOCC1)C1=C(O)c2ccccc2C1=O,-14%,6%,-2%,-49%,18%,-6.0%,19%,?
Cc1ccc(C(=O)Nc2ccc(N3CCN(C)CC3)nc2)cc1,nt,-15%,-1%,nt,1%,nt,18%,24%[46.1 µM]

# 3 compounds picked at random from those above, as already listed:
SMILES,Cruzain inh noDet,RE007 growth inh,SARS PLpro yeast,NS1 inh,Lassa entry inh,Cruzain inh Det,2A StopGo,Marburg entry inh
CC(C)N(Cc1nccn1C)C(=O)CCc1nnc(CCCc2ccccc2)o1,nt,-1%,0%,-1%,nt,nt,74%[activator],nt
CC(=O)Nc1ccc(S(=O)(=O)N2CCC(C(=O)NC3CC3)CC2)cc1,nt,4%,2%,-8%,nt,nt,32%[activator],nt
CC(=NCCN1CCOCC1)C1=C(O)c2ccccc2C1=O,-14%,6%,-2%,-49%,18%,-6.0%,19%,?

# Following part.
SMILES,Cruzain inh noDet,RE007 growth inh,SARS PLpro yeast,NS1 inh,Lassa entry inh,Cruzain inh Det,2A StopGo,Marburg entry inh
CC1CCc2c(sc3ncnc(NCCCOC(C)C)c23)C1 (configuration not stated),?,-7%,-14%,-8%,-11%,0.6%,?,?
O=C(C1CC1)N1CCc2sccc2C1c1ccc(Cl)cc1 (configuration not stated),nt,3%,-1%,-2%,?,nt,?,?
Cc1cc(Cl)c2oc(C(=O)N3CCCCC3CCN3CCCC3=O)c(C)c2c1 (configuration not stated),nt,2%,-5%,8%,nt,nt,-7%,nt
CCOC(=O)c1c(NC(=O)/C(C#N)=C/c2ccccc2)sc2c1CCC2,-1%,nt,nt,nt,-11%[46.1 µM],-1.6%,-13%,nt
O=C(O)Cc1csc(Nc2cccc(Cl)c2)n1,-5%,nt,-58%,0%,?,-3.8%,45%[activator],?
COCCNC(=O)c1cccc(OC2CCN(Cc3cccc(C(C)=O)c3)CC2)c1,nt,0%,-2%,18%,nt,nt,?,nt
CC1CN(C(=O)c2cccc(S(=O)(=O)N3CCOCC3)c2)CC(C)O1 (configuration not stated),1%,8%,0%,3%,1%,8.3%,nt,-2%
O=C(CN1CCCc2ccccc21)N/N=C/c1ccc(F)cc1F,nt,-17%,1%,-2%,3%,nt,-1%,16%
COc1cccc(OCc2nnc(SC)n2C)c1,-1%,12%,2%,-74%,3%,4.0%,43%[activator],30%
CCN(CC)CCOC(=O)c1ccc(NC(=O)c2nn(C)c3c2COc2ccccc2-3)cc1,17%,nt,nt,nt,nt,-1.9%,13%,-6%[46.1 µM]
Cc1ccc(NC(=O)Cn2c(O)c(N=NS(=O)(=O)c3ccc(C)cc3)c3ccccc32)cc1,3%,-4%,8%,18%,?,-6.2%,-2%,?
CCNC(=O)c1sc(=S)n(CC)c1N,-13%,-8%,3%,0%,4%,-4.0%,-7%,9%
CC(NC(=O)c1ccccc1OC(F)F)c1ccc(-n2ccnc2)cc1 (configuration not stated),nt,-11%,-4%,0%,0%,nt,-4%,3%
N#CCCCSc1nnnn1-c1cccc(Cl)c1,-13%,5%,2%,-2%,-6%,-3.1%,-8%,-15%[46.1 µM]
Cc1ccc(CN2CCN(Cc3c[nH]c4ccccc34)CC2CCO)o1 (configuration not stated),nt,11%,0%,4%,9%,nt,-13%,nt
COc1ccccc1N1CCN(C(=O)c2cc3cc(C)ccc3[nH]2)CC1,nt,-8%,?,-6%,?,nt,-18%,0%
CCOC(=O)C1CCN(S(=O)(=O)Cc2ccc(Cl)cc2)CC1,17%,17%,3%,1%,-1%,-3.6%,nt,2%
CCC1C(=O)N=C(SCC(=O)Nc2nc3ccccc3s2)NC1=O (configuration not stated),nt,-20%,0%,nt,19%[46.1 µM],nt,2%,9%[46.1 µM]
CCCc1cc(C(=O)Nc2nnc(C)s2)cs1,-22%,-6%,-5%,1%,?,-0.4%,47%[activator],?
COc1ccc(OC)c(S(=O)(=O)NCCc2csc(-c3cccc(F)c3)n2)c1,5%,nt,nt,nt,2%[46.1 µM],-0.4%,36%[activator],nt
O=C(NCCCN1CCN(c2ccccc2F)CC1)C1CCC(=O)N1C1CCCC1 (configuration not stated),4%,9%,4%,-40%,4%,-0.3%,-3%,-4%
COc1ccc(CN(C)C(=O)c2ccc3c(=O)n4c(nc3c2)CCC4)cc1,nt,15%,-4%,-13%,nt,nt,-25%,nt
Cc1noc(C)c1S(=O)(=O)N1CCC(C(=O)NC2CCN(Cc3ccccc3)CC2)CC1,-1%,-14%,-2%,8%,-20%,5.8%,nt,-21%
O=c1[nH]ncc(N2CCCC2)c1Cl,nt,11%,1%,nt,0%[46.1 µM],nt,7%,?
COc1ccc(NC(=O)CCCn2cc([N+](=O)[O-])cn2)cc1,nt,1%,10%,nt,2%,nt,10%,6%[46.1 µM]
CC(C)c1cc(C(=O)N2CCCC(N3CCN(c4ccc(F)cc4)CC3)C2)n(C)n1 (configuration not stated),nt,-5%,0%,-11%,nt,nt,?,nt
CCc1ccc(CN2C(=O)c3ccccc3C2C(=O)NCCc2ccc(OC)c(OC)c2)cc1 (configuration not stated),?,nt,nt,nt,-9%[46.1 µM],0.4%,7%,nt
CCOC(=O)C1=C(C)NC(=O)C1CC(=O)O (configuration not stated),-3%,4%,11%,4%,0%,-2.4%,-8%,17%

# Screens: PubChem, National Center for Advancing Translational Sciences (NCATS)
